Assay outcomes: PubChem, several laboratories
Beta apoptosis: beta cell apoptosis inhibition. INS-1E cytokine-induced death, ATP luminescence, 48 h; percent of positive-control rescue, neutral wells zero. protection from apoptosis, % (no concentration beside the values). 300,000 tested, 0.8% active. AID 435005;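 active = all replicates at 75% or more, or half of them and the mean; inconclusive = half reach 75% but not the mean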;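 also: 0% = cytokine-treated negative control wells and 100% = positive control rescue; higher means more ATP so stronger rescue from cytokine killing; wells of about 40 µL received 100 nL stock; the first replicate is given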
Ecoli rRNA inh: selective bacterial rRNA inhibition in E. coli; E. coli WT GFP vs humanized-ribosome RFP mutants, fluorescence, 24 h; hits give low values; DMSO median 0, no signal -100; 350,000 tested, 1.6% active; AID 720706; GFP signal change (wild-type ribosome), % (test concentration not listed);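 active = significant combined selectivity score with lowered wild-type GFP, culture density cut under 30%, mutant RFP and density less affected; inactive = any of these conditions unmet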; also: one replicate is shown; some compounds called inactive have numbers as strong as hits
T cruzi inh: T. cruzi replication inhibition | T. cruzi beta-gal in NIH3T3, luminescence, 90 h | inhibition, % (no concentration beside the values) | 300,000 tested, 1.4% active | AID 1885;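 active = mean inhibition across valid replicates above about 55%, limit read from the data; inconclusive = mean below that limit but half or more replicates reach it; inactive = mean below it, under half of replicates reach it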;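 also: signal also drops with host cell toxicity which is not excluded here; 0% = plate median of DMSO wells and 100% = zero luminescence signal; higher percent means less beta-gal luminescence so fewer parasites; stock transfer was 50 nL into about 50 µL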
A1 inh: inhibitors of the anti-apoptotic protein A1, read as caspase activation. MEF A1-2A-BIM cells, Caspase-Glo 3/7 luminescence, 3 h; percent of clofoctol response, vehicle zero. caspase activation, % (no concentration beside the values). 330,000 tested, 0.066% active. AID 2462;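 active = over half of replicate activation scores above 10%, or exactly half above 10 with the replicate mean above 10; inconclusive = replicate mean below 10 yet half the replicates above 10; inactive = over half of replicates below 10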;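 also: wells of about 30 µL received 50 nL stock; many hits fall short of the cut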
LANA-H2B inh: blocks KSHV LANA binding to histone H2A/H2B; inhibition, % (concentration not given with the values); cell-free LANA-H2A/H2B peptide, fluorescence polarization; AID 2629; 320,000 tested, 0.6% active; in the data active = inhibition mostly above about 10%, no sharp cut-off; inactive = mostly below about 6.7%;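 also: stock transfer was 7.5 nL into about 10 µL; 0% = median of vehicle wells and 100% = median of positive control wells; one replicate is shown; the record names a cut of 25% in any replicate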
B2AR ag: activates human beta-2 adrenergic receptor causing internalization; P07550; Am2.2-beta2AR cells, FAP receptor internalization, flow cytometry; reference of the scale not given here; response, % (no concentration beside the values); 340,000 tested, 0.43% active; AID 504454;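 active = response above a set limit, near 3 SD of response in nonfluorescent compounds, cut at about 42% in these data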;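 also: stock transfer was 100 nL into about 11 µL; a reference agonist was the positive control; negative values mostly stem from fluorescent compounds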
Target sequence (P07550 whole entry, looked up): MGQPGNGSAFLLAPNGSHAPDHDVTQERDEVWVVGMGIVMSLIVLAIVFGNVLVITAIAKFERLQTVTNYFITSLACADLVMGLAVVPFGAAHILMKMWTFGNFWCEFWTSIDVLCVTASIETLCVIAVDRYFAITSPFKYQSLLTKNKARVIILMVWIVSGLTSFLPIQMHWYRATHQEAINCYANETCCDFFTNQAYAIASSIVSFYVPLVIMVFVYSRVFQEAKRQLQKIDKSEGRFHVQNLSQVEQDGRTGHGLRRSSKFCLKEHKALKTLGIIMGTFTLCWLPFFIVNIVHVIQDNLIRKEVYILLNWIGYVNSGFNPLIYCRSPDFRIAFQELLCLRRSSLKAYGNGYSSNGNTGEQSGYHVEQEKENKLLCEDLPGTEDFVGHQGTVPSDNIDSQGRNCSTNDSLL
Calb FLC: affects C. albicans growth with fluconazole; C. albicans CaCi-2 (fluconazole-resistant clinical isolate) + fluconazole, Alamar Blue growth, 48 h; growth inhibition, % (no concentration beside the values); 300,000 tested, 0.57% active;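 active = most replicates above 75%; inconclusive = exactly half above 75%; inactive = most below 75%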;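 also: all wells also contain fluconazole at 8 µg/ml as a sub-toxic cotreatment; 0% = median of DMSO wells and 100% = median of geldanamycin control wells; wells of about 8 µL received 7.5 nL stock; the first replicate is given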
ALR inh: inhibitors of human sulfhydryl oxidase ALR; P55789; purified ALR, DTT oxidation, H2O2 HRP-luminol luminescence; inhibition, % (no concentration beside the values); 290,000 tested, 3.8% active;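 active = mean and each replicate at 75% or more; inconclusive = only one of the two met; inactive = neither met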;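 also: stock transfer was 7.5 nL into about 7.5 µL; 0% = neutral wells and 100% = wells with inactivated enzyme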
Target sequence (P55789 whole entry, looked up): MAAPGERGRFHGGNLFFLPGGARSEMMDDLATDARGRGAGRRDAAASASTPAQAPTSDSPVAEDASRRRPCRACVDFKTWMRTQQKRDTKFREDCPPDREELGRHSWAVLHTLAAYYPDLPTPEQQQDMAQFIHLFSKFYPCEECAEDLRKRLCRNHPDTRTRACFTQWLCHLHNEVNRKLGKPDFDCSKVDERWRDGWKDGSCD
Ecoli rRNA inh OD600: recorded beside Ecoli rRNA inh, whose call it bears; OD600 change, %; measured here: OD600 growth;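 optical density of the mix in the first replicate; 0 = DMSO median and -100 = no signal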
Ecoli rRNA inh RFP: also measured in Ecoli rRNA inh; calls as there; RFP signal change, %; measured here: RFP humanized mutant strains;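 first replicate; 0 = DMSO median and -100 = no signal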
* hit, by the source's call. These rows are one share of the data; the hit share may differ from the screen's.

Results for NC(=O)C1CCCCc2c1[nH]c1ccc(Cl)cc21 (stereo not drawn) ?
Beta apoptosis: -6; Ecoli rRNA inh: -23; T cruzi inh: -7; A1 inh: 1.8; LANA-H2B inh: 1.8; B2AR ag: 1; Calb FLC: -4; ALR inh: 98*; Ecoli rRNA inh OD600: -44; Ecoli rRNA inh RFP: -7.3

Results for COc1ccc2c(c1)c1ncn(CCN3CCCCC3)c(=O)c1n2C ?
Beta apoptosis: -5; T cruzi inh: 2; A1 inh: 1.9; LANA-H2B inh: -12; B2AR ag: -1; Calb FLC: 6; ALR inh: -2

Results for O=C(COC(=O)c1cc([N+](=O)[O-])ccc1N1CCOCC1)NCc1ccc(F)cc1 ?
Ecoli rRNA inh: -5; T cruzi inh: -7; A1 inh: 0.1; LANA-H2B inh: inactive; B2AR ag: -6; Calb FLC: 2; ALR inh: 0; Ecoli rRNA inh OD600: 1; Ecoli rRNA inh RFP: 3.8

What do the screens show for `CC(C)n1cc(/C(N)=N/O)c(=O)n(Cc2ccccc2)c1=O`?
Beta apoptosis: -4; Ecoli rRNA inh: 6; T cruzi inh: -7; A1 inh: 0.1; LANA-H2B inh: -1.8; B2AR ag: 0; Calb FLC: 2; ALR inh: 29; Ecoli rRNA inh OD600: 11; Ecoli rRNA inh RFP: 0.6

What do the screens show for `COc1ccc(NC(=O)CSc2nccn2Cc2ccco2)c(OC)c1`?
Beta apoptosis: -2; Ecoli rRNA inh: 5; T cruzi inh: -1; A1 inh: 1.8; LANA-H2B inh: 0.4; B2AR ag: -2; Calb FLC: 1; ALR inh: 53; Ecoli rRNA inh OD600: -1; Ecoli rRNA inh RFP: 2.9

How did Cc1ccc(S(=O)(=O)NC(C)C(c2cccs2)N2CCOCC2)cc1 (stereo not drawn) do in these assays?
Beta apoptosis: -7; Ecoli rRNA inh: 5; T cruzi inh: 2; A1 inh: -0.2; LANA-H2B inh: -4.1; B2AR ag: 9; Calb FLC: 0; ALR inh: -2; Ecoli rRNA inh OD600: -14; Ecoli rRNA inh RFP: -4.3

What do the screens show for `COc1ccc(C(=O)NNC(=O)c2cc3cc(OC)ccc3oc2=O)cc1`?
Beta apoptosis: -22; Ecoli rRNA inh: 4; T cruzi inh: -2; A1 inh: -0.2; LANA-H2B inh: -9.2; B2AR ag: -5; Calb FLC: -4; Ecoli rRNA inh OD600: 11; Ecoli rRNA inh RFP: 0.2

Results for Cc1onc(-c2ccccc2Cl)c1C(=O)N1CCCCC1 ?
Beta apoptosis: -10; Ecoli rRNA inh: 4; T cruzi inh: 13; A1 inh: 0.1; LANA-H2B inh: -1.1; B2AR ag: 2; Calb FLC: 5; ALR inh: -4; Ecoli rRNA inh OD600: 5; Ecoli rRNA inh RFP: 2.2

What do the screens show for `Cc1cccc(-c2noc(C(C)NC(=O)c3ccco3)n2)c1` (stereo not drawn)?
Beta apoptosis: 0; Ecoli rRNA inh: 1; T cruzi inh: 6; A1 inh: -0.1; LANA-H2B inh: 4.1; B2AR ag: -9; Calb FLC: 4; ALR inh: 4; Ecoli rRNA inh OD600: -19; Ecoli rRNA inh RFP: 3.8

Results for CC1CCCC(NC(=O)CSc2nncs2)C1C (stereo not drawn) ?
Beta apoptosis: -1; Ecoli rRNA inh: 9; A1 inh: 0.0; LANA-H2B inh: 0.8; B2AR ag: 9; ALR inh: 0; Ecoli rRNA inh OD600: 13; Ecoli rRNA inh RFP: 1.1

How did Cc1ccccc1CC1(CO)CCCN(C(=O)c2cc(Cl)ccc2F)C1 (stereo not drawn) do in these assays?
Beta apoptosis: 1; Ecoli rRNA inh: -14; T cruzi inh: 30; A1 inh: 0.0; LANA-H2B inh: -4.7; B2AR ag: -1; Calb FLC: 6; ALR inh: -3; Ecoli rRNA inh OD600: -21; Ecoli rRNA inh RFP: -3.4

Results for CN(C)C(CNC(=O)CCNC(=O)c1ccc(Cl)cc1)c1ccco1 (stereo not drawn) ?
Ecoli rRNA inh: 10; T cruzi inh: -11; A1 inh: 1.0; LANA-H2B inh: 2.2; B2AR ag: -7; Calb FLC: -2; ALR inh: -5; Ecoli rRNA inh OD600: 19; Ecoli rRNA inh RFP: 1.7

What do the screens show for `Cc1noc(NS(=O)(=O)c2ccc(N/C=C/C(=O)c3ccc4c(c3)OCO4)cc2)c1C`?
Beta apoptosis: 1; T cruzi inh: -14; A1 inh: -1.2; LANA-H2B inh: 3.9; B2AR ag: 3; Calb FLC: -3

Results for COc1ccccc1NC(=O)Cc1cccs1 ?
Beta apoptosis: 0; T cruzi inh: -7; A1 inh: -0.6; LANA-H2B inh: -1.5; B2AR ag: -2; Calb FLC: -5; ALR inh: 7

How did CC(C)Oc1ccc(S(=O)(=O)N2CCOCC2)cc1NC(=O)CC1OC(=O)c2ccccc21 (stereo not drawn) do in these assays?
Beta apoptosis: -1; Ecoli rRNA inh: -2; T cruzi inh: 8; A1 inh: 0.3; LANA-H2B inh: 16*; B2AR ag: -1; ALR inh: -6; Ecoli rRNA inh OD600: 1; Ecoli rRNA inh RFP: 3.9

Results for O=C1CN(C(=O)COC(=O)COc2ccccc2)c2ccccc2N1 ?
Beta apoptosis: 2; Ecoli rRNA inh: 6; A1 inh: 0.2; LANA-H2B inh: 0.2; B2AR ag: 8; ALR inh: 1; Ecoli rRNA inh OD600: 0; Ecoli rRNA inh RFP: 1.4

Results for O=C(NC(Cc1ccccc1)C(=O)O)/C(=C/c1ccccc1)NC(=O)c1ccccc1 (stereo not drawn) ?
Beta apoptosis: 0; T cruzi inh: -8; A1 inh: -0.5; LANA-H2B inh: -7.1; B2AR ag: 4; Calb FLC: -1; ALR inh: 1

How did Oc1ccccc1Nc1nc(NCc2ccccc2)c2ccccc2n1 do in these assays?
Beta apoptosis: 11; Ecoli rRNA inh: -64; T cruzi inh: 40; A1 inh: 0.6; LANA-H2B inh: 3.4; B2AR ag: 29; Calb FLC: 50; ALR inh: inconclusive; Ecoli rRNA inh OD600: -75; Ecoli rRNA inh RFP: -25

How did CN(C)S(=O)(=O)c1ccc(Cl)c(NC(=O)CN2C(=O)NC3(CCc4ccccc43)C2=O)c1 (stereo not drawn) do in these assays?
Beta apoptosis: -2; Ecoli rRNA inh: -16; A1 inh: -0.2; LANA-H2B inh: -1.4; B2AR ag: 14; ALR inh: 0; Ecoli rRNA inh OD600: -14; Ecoli rRNA inh RFP: -5.2

What do the screens show for `COc1ccc(C(=O)NC(C(=O)NCC(=O)Nc2c(C)cccc2C)C(C)C)cc1` (stereo not drawn)?
Beta apoptosis: 1; Ecoli rRNA inh: -2; T cruzi inh: -6; A1 inh: -0.8; LANA-H2B inh: -232; B2AR ag: -2; Calb FLC: 3; ALR inh: -32; Ecoli rRNA inh OD600: 14; Ecoli rRNA inh RFP: -1.3

What do the screens show for `O=c1cc(-c2ccc(O)cc2)oc2ccc(O)cc12`?
Beta apoptosis: 9; Ecoli rRNA inh: -30; T cruzi inh: -15; A1 inh: -4.8; LANA-H2B inh: 1.3; B2AR ag: 4; Calb FLC: 1; ALR inh: -10; Ecoli rRNA inh OD600: -55; Ecoli rRNA inh RFP: -23

What do the screens show for `CC(C)(C)n1nc2c(c1NC(=O)c1cccs1)CS(=O)C2` (stereo not drawn)?
Beta apoptosis: 1; T cruzi inh: -6; A1 inh: 0.7; LANA-H2B inh: 2.8; B2AR ag: -3; Calb FLC: -8; ALR inh: -19

How did CCN(c1ccc(NC(=O)CSc2nnc3nc(C)cc(C)n23)cc1)C(C)C do in these assays?
Beta apoptosis: 0; T cruzi inh: 9; A1 inh: 0.0; LANA-H2B inh: -2.3; B2AR ag: -5; Calb FLC: -2; ALR inh: 99*

What do the screens show for `Nc1nc(-c2cccnc2)nn1C(=O)COc1ccccc1`?
Beta apoptosis: -5; T cruzi inh: -2; A1 inh: -0.5; LANA-H2B inh: 1.2; B2AR ag: 3; Calb FLC: 0; ALR inh: -2

Results for Cc1cc(NC(=O)CN2C(=O)NC(CC(C)C)C2=O)no1 (stereo not drawn) ?
Beta apoptosis: -6; Ecoli rRNA inh: 15; A1 inh: 0.2; LANA-H2B inh: -2.8; B2AR ag: 4; Ecoli rRNA inh OD600: 7; Ecoli rRNA inh RFP: 0.6

What do the screens show for `O=C(O)c1ccc(/C=C2/SC(=S)N(Cc3ccccc3)C2=O)cc1`?
Beta apoptosis: -11; Ecoli rRNA inh: 10; T cruzi inh: -12; A1 inh: -6.1; LANA-H2B inh: -0.4; B2AR ag: 0; Calb FLC: 10; ALR inh: 3; Ecoli rRNA inh OD600: 6; Ecoli rRNA inh RFP: 1.5

How did CC(Sc1nnc(Cc2cccs2)n1C1CCCCC1)C(=O)NCc1ccco1 (stereo not drawn) do in these assays?
Beta apoptosis: 1; T cruzi inh: 5; A1 inh: -0.9; LANA-H2B inh: 2.3; B2AR ag: -5; Calb FLC: 14; ALR inh: 1

What do the screens show for `N#C/C(=C\c1cn[nH]c1-c1ccc(Cl)cc1)C(=O)NC1CC1`?
Beta apoptosis: -7; T cruzi inh: 0; A1 inh: -0.1; LANA-H2B inh: 1.0; B2AR ag: -26; Calb FLC: -6; ALR inh: 73

What do the screens show for `Cc1ccc2cc(CN(CC3CCCO3)C(=O)c3cccs3)c(=O)[nH]c2c1` (stereo not drawn)?
Beta apoptosis: -3; Ecoli rRNA inh: 3; T cruzi inh: 8; A1 inh: 0.3; LANA-H2B inh: -1.9; B2AR ag: -12; Calb FLC: 1; ALR inh: -7; Ecoli rRNA inh OD600: 4; Ecoli rRNA inh RFP: -1.2

How did Cc1nc2ccc(NC(=O)c3cc(Cl)ccn3)cc2s1 do in these assays?
Beta apoptosis: -1; Ecoli rRNA inh: 7; T cruzi inh: 28; A1 inh: -7.8; LANA-H2B inh: -5.6; B2AR ag: -18; Calb FLC: -14; ALR inh: -2; Ecoli rRNA inh OD600: 12; Ecoli rRNA inh RFP: 13

How did CN(CC(=O)Nc1ccc(F)c(F)c1F)C(=O)/C=C/c1ccco1 do in these assays?
Beta apoptosis: -5; Ecoli rRNA inh: 2; A1 inh: 1.5; LANA-H2B inh: -4.2; B2AR ag: 0; ALR inh: 7; Ecoli rRNA inh OD600: 4; Ecoli rRNA inh RFP: 5.2

How did CCCN1CCN(CCCNC(=O)c2ccc3nc(N4CCCCC4)sc3c2)CC1 do in these assays?
Beta apoptosis: -8; Ecoli rRNA inh: 0; T cruzi inh: 3; A1 inh: 0.5; LANA-H2B inh: -4.0; B2AR ag: -11; Calb FLC: 5; ALR inh: 1; Ecoli rRNA inh OD600: 7; Ecoli rRNA inh RFP: -0.5

Results for N/C(=N\OC(=O)/C=C/c1ccccc1Cl)c1ccncc1 ?
Beta apoptosis: -4; Ecoli rRNA inh: -2; T cruzi inh: -28; A1 inh: 1.3; LANA-H2B inh: -2.4; B2AR ag: 1; Calb FLC: 19; Ecoli rRNA inh OD600: 2; Ecoli rRNA inh RFP: 1.0
